Mtb hypoxia inh = PubChem AID 1159583; M. tuberculosis hypoxia-regulated fluorescent reporter, fluorescence; fluorescence inhibition, % (no concentration beside the values); 300,000 compounds, 0.1% hits;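 active = 35 to 45% if threefold the growth effect, above 45% if 1.5-fold the growth effect; inactive = the rest, general growth blockers included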;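 also: wells of about 50 µL received 100 nL stock; 0% = vehicle wells and 100% = reference inhibitor wells; whole bacteria with a GFP reporter of the hypoxia response; strong numbers were not always called active; many hits fall short of the cut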
RN4220 kill = growth inhibition of S. aureus RN4220, primary screen, OD600 | 16 h | 330,000 compounds, 0.33% hits | inhibition, % (test concentration not listed);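 active = z-score of -3 or lower and OD600 up to 0.18 on both plates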;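 also: plate controls were untreated cells for no effect and reference antibiotic for full effect; stock transfer was 100 nL into about 80 µL; one replicate is shown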
Autofluor counter = counter-screen for toxin protease inhibitors: compound fluorescence. compound autofluorescence counterscreen, microsphere flow cytometry; hits give high values. fluorescence intensity (no concentration beside the values). 360,000 compounds, 3.1% hits;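 active = at least 3 SD above the mean of all compounds, about 16000 in these data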;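 also: 100 nL of 1 mM stock went into each well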
BJeLR viability = MLPCN primary cell-based screen for lethality selective to Ras in HRASV12 cells | BJeLR (HRASV12) viability, CellTiter-Glo ATP luminescence, 48 h; reference of the scale not given here | inhibition, % (test concentration not listed) | 300,000 compounds, 0.17% hits | AID 1554, 2009;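 active = replicate mean above 50%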;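 also: 50 nL library stock added to about 25 µL; numbers are from one replicate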
PrP UTR inh = inhibition of PrP 5' UTR reporter expression. cell-based PrP 5' UTR mRNA reporter, plate reader. inhibition, % (test concentration not listed). 340,000 compounds, 0.35% hits. AID 488862, 2010;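 active = every replicate at 50% or more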;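 also: 0 = median of the neutral control wells; tested in H4 reporter cells; numbers are from one replicate; inactives centre near -14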
Sa ugtP lethal = growth inhibition of ugtP-null S. aureus, primary screen, RN4220 ugtP deletion, OD600; 16 h; some inactives read as strong as hits; growth inhibition, % (concentration not given with the values); 330,000 compounds, 0.54% hits; AID 1259309, 2017;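 active = z-score under -3 and OD600 up to 0.15 on both plates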;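 also: plate controls were untreated wells for no effect and antibiotic for full effect; wells of about 80 µL received 100 nL stock; the first replicate is given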
Mtb hypoxia inh growth = also measured in Mtb hypoxia inh; calls as there; growth inhibition, %; measured here: M. tuberculosis growth (absorbance);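 0% = vehicle and 100% = reference antibiotic; read after six days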
An asterisk follows results filed as active; . = no result given; & = joins results of further samples.

SMILES	Mtb hypoxia inh	Mtb hypoxia inh growth	RN4220 kill	Autofluor counter	BJeLR viability	PrP UTR inh	Sa ugtP lethal
CSc1ccc(C2c3[nH]c4ccccc4c3CCN2C(=O)c2ccnn2C)cc1 (stereo not given)	8	-5	6.4	2076	1	-41	-11
Cc1ccn2c(C(=O)NN=C3CCCCCCC3)c(C)nc2c1	18	5	6.2	3236	-7	-15	5
COCCOC(=O)C1=C(C)OC(N)=C(C#N)C1c1ccc2c(c1)OCO2 (stereo not given)	8	4	-13	3263	0	1	-7
Cc1ccc(NC(=O)CCN2C(=O)NC3(CCCC3)C2=O)cc1	9	-2	3.0	5879	.	-3	4
COc1ccccc1CC(=O)Nc1cccc(C(=O)Nc2nccs2)c1	0	4	3.7	6267	1	-21	7
NNC(=O)c1ccc(Oc2cc(Cl)cc(Cl)c2)o1	4	-1	3.6	3479	-14	2	2
Cc1ccc(C(=O)N2CCN(c3ccc(NC(=O)Cc4ccccc4)cc3)CC2)cc1	14	8	2.2	6158	-15	-3	2
COc1cc(S(=O)(=O)N2CCC(C(N)=O)CC2)c(C)cc1C	18	2	2.5	6886	-20	-8	10
CC1=CC(C)(C)Nc2ccc(Cc3ccc4c(c3)C(C)=CC(C)(C)N4)cc21	.	.	.	3114	3	-15	.
CSc1ncc(C(=O)Nc2cccc(C)c2C)c(C)n1	6	-3	4.8	3265	1	-15	1
CC(C)C[C@H](NC(=O)N1CCCCCC1)C(=O)O	5	-4	1.6	.	-8	-8	5
CC1=Nc2cc(C(=O)NCCCN3CCN(C)CC3)ccc2Sc2ccc(C)cc21	2	7	-0.2	5821	-6	1	1
COc1ccc(NC(=O)C2C3C=CC(C3)C2C(=O)O)cc1 (stereo not given)	8	4	0.4	4183	0	-3	1
CCN(CC)S(=O)(=O)c1ccc(N(C)C)c(NC(=O)C2CCCC2)c1	-5	0	-5.0	3398	-8	14	-11
CCOC(=O)C1=C(COC(=O)c2cccc(NC(C)=O)c2)NC(=O)NC1C (stereo not given)	8	5	3.6	6488	-5	-23	14
CN(C(=S)NC(=O)CCCOc1ccc(Cl)cc1Cl)c1ccccc1	3	-1	-3.1	9820	4	-4	-17
COc1ccc(S(=O)(=O)N2CCN(C(=O)NC3CCCCC3)CC2)cc1OC	7	0	-5.3	7256	-5	.	15
COc1cccc(C=NN2CCOCC2)c1O	-5	6	0.8	.	.	.	8
CC(C)(C)NC(=O)CN(C(=O)C(=O)Nc1ccc2c(c1)OCCO2)C1CCCC1	12	8	4.2	5468	0	-14	5
Cc1nnsc1-c1nnc(SCC(=O)c2ccc(F)cc2)n1C1CC1	-3	3	5.0	6254	-9	-32	-3
COc1cc(-c2nc3c4ccccc4nc(=S)n3[nH]2)cc(OC)c1OC	1	3	3.3	3819	-6	-16	-6
CC(C)NC(=S)N/N=C1\CCCCC1C1CCCCC1 (stereo not given)	.	.	.	22179*	2	6	.
COc1ccc(C(=O)OCC(=O)NCCCc2ccccc2)c(OC)c1	-3	1	4.1	4008	6	-24	4
O=C(O)C1(P(=O)(c2ccc(Cl)cc2)c2ccc(Cl)cc2)CC1	.	.	.	4393	6	-35	.
Cc1ccc(OCCCC(=O)ON=C(N)c2ccccc2C)cc1	9	6	7.0	5341	.	.	10
CCCN1C(=O)C2C(C(=O)Nc3cccc(OC)c3)C3C=CC2(O3)C1C(=O)NC1CCCCC1 (stereo not given)	.	.	-6.8	4154	6	-9	6
O=C(c1cccs1)N1CCN(S(=O)(=O)N2CCCCC2)CC1	.	.	-1.5	4475	.	-8	11
CCN(CC)S(=O)(=O)c1ccc(N2CCCC2)c(C(=O)OCC(=O)N2CCCC2)c1	-4	-7	-1.0	4200	-2	10	4
O=S(=O)(c1ccc2c(c1)N(Cc1ccc(Cl)cc1)C1CCCN21)N1CCOCC1 (stereo not given)	.	.	0.2	4883	-3	1	7
O=C(Nc1ccc(Cl)cc1C(=O)O)c1ccc2c(c1)C(=O)N(Cc1ccco1)C2=O	5	3	66	2053	6	-14	100*
Cc1ccc2c(c1)C1CN(C)CCC1N2C(=O)Cn1nnc(-c2ccccc2F)n1 (stereo not given)	4	13	-3.0	5960	-7	-10	-3
O=S(=O)(NCCSc1ccc(Cl)cc1)c1ccc2c(c1)OCCO2	-8	6	-6.6	4408	-9	-8	5
COC(=O)c1csc(S(=O)(=O)N2CCOCC2)c1OC	7	-3	-0.7	5226	18	-22	-6
COc1nc(NC(C)(C)C)nc(Oc2ccc(=O)n(C)n2)n1	14	9	-7.9	6254	-8	-57	-1
COc1ccc(C(=O)Nc2cc(C)nn2-c2cccc(F)c2)cc1	2	-5	3.2	3762	6	-14	4
COC(=O)c1sccc1NC(=O)c1ccccc1F	5	4	8.8	3926	1	.	-5
CCOC(=O)Cc1csc(NC(=S)NC(=O)c2ccccc2Br)n1	-4	10	4.3	2549	3	-8	0
C=C(C)Cn1c(SCC(=O)N/N=C/c2ccccc2OCC(=O)O)nnc1-c1ccc(Br)cc1	.	.	.	5608	3	-21	.
CN(Cc1ccco1)C(=O)Cn1ncc2c([nH]c3ccccc32)c1=O	16	1	1.2	5774	6	-12	0
CCc1cccc2c(/C=N/NC(=O)c3cccc(S(=O)(=O)Nc4ccccc4Cl)c3)c[nH]c12	.	.	.	2158	14	-27	.

In a second layout: results already given.
| SMILES | Mtb hypoxia inh | Mtb hypoxia inh growth | RN4220 kill | Autofluor counter | BJeLR viability | PrP UTR inh | Sa ugtP lethal |
| --- | --- | --- | --- | --- | --- | --- | --- |
| CCN(CC)S(=O)(=O)c1ccc(N2CCCC2)c(C(=O)OCC(=O)N2CCCC2)c1 | -4 | -7 | -1.0 | 4200 | -2 | 10 | 4 |
| O=S(=O)(c1ccc2c(c1)N(Cc1ccc(Cl)cc1)C1CCCN21)N1CCOCC1 (stereo not given) | . | . | 0.2 | 4883 | -3 | 1 | 7 |
| O=C(Nc1ccc(Cl)cc1C(=O)O)c1ccc2c(c1)C(=O)N(Cc1ccco1)C2=O | 5 | 3 | 66 | 2053 | 6 | -14 | 100* |
| Cc1ccc2c(c1)C1CN(C)CCC1N2C(=O)Cn1nnc(-c2ccccc2F)n1 (stereo not given) | 4 | 13 | -3.0 | 5960 | -7 | -10 | -3 |
| O=S(=O)(NCCSc1ccc(Cl)cc1)c1ccc2c(c1)OCCO2 | -8 | 6 | -6.6 | 4408 | -9 | -8 | 5 |

Later entries:
SMILES	Mtb hypoxia inh	Mtb hypoxia inh growth	RN4220 kill	Autofluor counter	BJeLR viability	PrP UTR inh	Sa ugtP lethal
Cc1cnc(C(=O)OCC(=O)c2c(N)n(CC(C)C)c(=O)n(C)c2=O)cn1	-3	7	0.0	5858	6	-18	-3
Cc1ccc(NC(=O)CSc2nnc(-c3ccc(S(=O)(=O)N4CCCC4)cc3)o2)cc1C	-19	-9	-2.7	21954*	.	-20	-9
Cc1ccn2c(NC(C)(C)C)c(-c3cccs3)nc2c1	20	12	-3.9	4251	-2	-39	1
O=C(CCNS(=O)(=O)c1ccc(Cl)cc1)OCC(=O)N1CCN(C(=O)c2ccco2)CC1	7	8	3.7	5004	9	-13	8
CCOCCCNC(=O)c1cc(C)nn1-c1ccccc1	5	3	0.9	5805	14	-21	16
COc1ccc(CCNC(=O)CC(C)=NNC(=O)c2ccc(Cl)cc2Cl)cc1OC	-11	-5	2.4	.	.	.	3
Cn1cccc1Cc1nnc(SCC(=O)N2CCCc3ccccc32)n1-c1ccc(F)cc1	.	.	2.8	5883	1	-21	7
CCn1cc(C(=O)NCCc2ccc(C)cc2)c(=O)c2cc(S(=O)(=O)N(C)C)ccc21	2	-8	7.6	.	-3	.	8
Cc1cc(C)c2oc(C(=O)NC3CCS(=O)(=O)C3)cc(=O)c2c1 (stereo not given)	-6	7	1.0	5452	-7	-9	5
Cc1c(C(=O)Nc2ccccc2)sc2nc3n(c(=O)c12)CCCCC3	-6	12	0.4	3571	5	-17	-1
O=C(Oc1ccc(C(=S)N2CCCCC2)cc1)c1ccccc1F	8	-6	-1.1	2213	-2	-23	3
O=C(OCCOc1cccc(Cl)c1)c1ccc2ncsc2c1	13	8	11	5194	1	-18	9
Cn1c(SCC(=O)c2ccccc2)nnc1-c1cccs1	8	7	7.0	4811	4	-60	11
O=C(NCCCNC(=O)c1ccco1)c1ccc(F)cc1	7	9	4.8	3692	8	-13	1
COc1cc(C(c2c(C)[nH][nH]c2=O)c2c(C)[nH][nH]c2=O)ccc1OC(=O)c1cccc([N+](=O)[O-])c1	0	-6	4.1	2480	.	-1	5
COC(=O)c1c(C)cc(O)c(C)c1O	.	.	5.8	4924	-3	-36	1
CCc1ccc(S(=O)(=O)N2CCN(C(=O)C3CCN(C(C)=O)CC3)CC2)cc1	3	-1	3.9	7236	-8	-17	10
CCCCOc1ccc(N=Nc2ccc(N)nc2N)cn1	.	.	.	3463	0	-72	.
CN(C)C(=O)CCc1ccc2c3c([nH]c2c1)[C@]1(C)[C@@H](C(=O)N2CCOCC2)C[C@H](CC(=O)NC(C)(C)C)C(=O)N1CC3	1	3	8.2	3612	.	-11	4
COC(=O)CCC(=O)NC(=S)Nc1cc(Cl)ccc1Cl	-4	8	2.4	12675	-2	-7	61
CC(NC(=O)Cn1cccc1C(=O)c1ccccc1)c1ccc2c(c1)OCCO2 (stereo not given)	13	9	2.5	4252	3	8	3
Cc1nnsc1-c1onc(C)c1C(=O)O/N=C/c1ccc(Cl)cc1	.	.	.	3488	-10	-15	.
Oc1ccccc1C=Nc1c(-c2ccco2)nc2ccccn12	13	-1	0.5	.	.	.	-6
O=C(Cc1ccccc1)Nc1ccc(NC(=O)c2cccs2)cc1	15	3	-6.9	4602	-9	-10	1
CC(C)CN(CC(C)C)S(=O)(=O)N1CCC(C(=O)NCc2cccs2)CC1	6	5	-2.0	8765	-6	-9	3
CCC(=O)N(C)CCc1cc2c(c(OC)c1C=NNc1ccc(C(=O)O)cc1)OCO2	11	7	5.6	.	.	.	2
Cc1ccc2c(Cn3ccnc3)cc(=O)oc2c1C	13	4	-3.3	3898	5	-12	-5
O=C(NC1CCCCC1)[C@H](CSCc1ccccc1)N1Cc2ccccc2C1=O	.	.	-4.9	5763	3	0	7
CC(C)(C)c1nnc(NC(=O)CS(=O)(=O)Cc2ccccc2)s1	-5	2	8.4	2073	7	-10	1
O=C(Nc1ncc2c(n1)CC(c1ccc(Cl)cc1)CC2=O)c1ccco1 (stereo not given)	6	-1	-0.5	3564	-6	-13	12
Cc1onc(-c2ccccc2)c1C(=O)Nc1nc(-c2cc(F)ccc2F)cs1	-2	6	8.5	20225*	0	-33	-17
CC1=NC(C)(C)Cc2ccccc21	8	7	2.8	8523	-4	-56	1
CC1CCCN(c2nc3ccccc3nc2C(C#N)S(=O)(=O)c2ccccc2)C1 (stereo not given)	1	-1	21	9290	3	-4	2
CC(C)OC(=O)CN1CCN(C2c3ccccc3-c3ccccc32)CC1	.	.	-2.1	2878	2	-3	14
C/C(=N\NC(=O)c1cccs1)C(C)(C)C	.	.	.	2494	-14	-7	.
O=C1C(c2ccc(F)cc2)N(Cc2ccc3c(c2)OCO3)C(=O)CN1C1CCCCCC1 (stereo not given)	7	5	5.1	7849	12	-12	10
O=S(=O)(c1cccc2cccnc12)N1CCN(c2ccccc2)CC1	11	5	2.3	10750	1	-17	1
CC(=O)Nc1ccc(S(=O)(=O)NCC(=O)NC(C)c2ccc(S(N)(=O)=O)cc2)cc1 (stereo not given)	-12	4	0.9	6284	-15	-2	-5
CCOc1ccccc1C(=O)OCC(=O)NCCNC(=O)COC(=O)c1ccccc1OCC	-1	1	4.4	5381	5	-20	5
O=C(NCC1CCCO1)Nc1ccc2c(c1)OCO2 (stereo not given)	13	7	3.8	2475	-9	-28	5
COc1ccc(CCNC(=O)Cc2ccc(C)cc2)cc1OC	4	-2	0.5	3412	-4	7	0
NC(N)=NC(=S)Nc1ccc(Cl)cc1	11	5	0.9	4217	1	-36	1
O=[N+]([O-])c1ccccc1OCCOc1ccccc1[N+](=O)[O-]	17	14	2.2	4435	-15	-77	1
Cn1nc(-c2ccc(OCC(=O)N3CCN(Cc4ccccc4)CC3)cc2)c2ccccc2c1=O	-10&-1	8&2	-0.6&3.0	13899	1&7	5	-5&6
CCOP(=O)(Cc1cc(C(C)=O)c(C)o1)OCC	-11	8	3.4	4495	-5	-12	-3
CCCN(CCC)C(=O)C1CC(=O)OC12CCCCC2 (stereo not given)	-11	-4	2.2	4929	-3	-13	3
OC(CN1CCCC(C(F)(F)F)C1)c1ccccc1 (stereo not given)	.	.	1.2	3125	-2	-8	1
CSCCC(NC(=O)c1cccc(C)c1)C(=O)NCc1cccs1 (stereo not given)	-3	-5	13	6182	.	-16	4
CCOC(=O)c1c(NC(=O)COC(=O)/C=C/c2ccco2)sc2c1CC(C)(C)NC2(C)C	2	1	-5.3	4706	3	-19	-9

Screening results deposited in PubChem BioAssay by several laboratories.
